RecA intein inh: inhibitors of M. tuberculosis RecA intein splicing; cell-free RecA intein splicing, fluorescence; AID 2221; actives 0.75% (n = 290,000); inhibition, %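 (about 9 µM by stock and volumes)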; in the data active means inhibition above about 30%; inconclusive means no clear call, values can overlap the other calls;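 further: 0% = vehicle wells and 100% = reference inhibitor control wells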
Target sequence (P9WHJ3 whole entry, looked up): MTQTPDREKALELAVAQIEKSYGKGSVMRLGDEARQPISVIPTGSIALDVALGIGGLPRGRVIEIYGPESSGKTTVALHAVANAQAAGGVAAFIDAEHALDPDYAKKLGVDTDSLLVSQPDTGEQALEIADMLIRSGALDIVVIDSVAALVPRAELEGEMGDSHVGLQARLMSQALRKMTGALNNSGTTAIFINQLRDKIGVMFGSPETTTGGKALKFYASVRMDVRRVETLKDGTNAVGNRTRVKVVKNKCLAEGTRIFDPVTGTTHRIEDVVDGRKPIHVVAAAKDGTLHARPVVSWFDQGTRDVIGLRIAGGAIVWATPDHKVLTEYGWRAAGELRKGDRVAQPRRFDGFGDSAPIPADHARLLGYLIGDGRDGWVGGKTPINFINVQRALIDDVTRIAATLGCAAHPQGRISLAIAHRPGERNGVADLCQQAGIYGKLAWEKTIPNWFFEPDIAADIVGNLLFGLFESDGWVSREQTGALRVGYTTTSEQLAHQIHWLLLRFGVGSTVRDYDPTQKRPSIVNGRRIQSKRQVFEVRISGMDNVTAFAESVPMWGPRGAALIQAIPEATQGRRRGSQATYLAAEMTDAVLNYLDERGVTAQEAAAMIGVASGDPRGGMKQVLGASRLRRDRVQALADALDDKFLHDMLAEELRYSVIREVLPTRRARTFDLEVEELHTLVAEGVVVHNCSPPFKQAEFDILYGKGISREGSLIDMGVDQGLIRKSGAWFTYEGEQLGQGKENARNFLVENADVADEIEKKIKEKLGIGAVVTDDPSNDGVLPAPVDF
Arbovirus anti: blocks arbovirus infection; arbovirus infection cell-based antiviral screen; inhibition, % at 10 µM; actives 0.37% (n = 200,000); AID 1251;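 active means inhibition from about 30%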;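 further: bluetongue infection of BSR cells; cell survival read as ATP light after 72 h; 0% = infected wells without compound and 100% = uninfected wells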
Mtb growth: M. tuberculosis H37Rv growth inhibitors, H37Rv strain (AID 1626) | M. tuberculosis H37Rv growth inhibition; higher % means a stronger effect | inhibition, % at 10 µM, or IC50 in µM where a hit was titrated | actives 0.95% (n = 220,000);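 active means confirmed in a dose series; inconclusive means inhibition above 80% but not taken into the dose series; inactive means below 80% or under 30% at every dose of the series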;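 further: bacteria incubated seven days before Alamar blue readout; 0% = bacteria only wells and 100% = bacteria with antibiotic wells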
Mtb betalactam: beta-lactam sensitization of Mtb H37Rv | M. tuberculosis H37Rv growth with meropenem, percent inhibition; hits of this screen are not shown here | inhibition, % at 25 µM | actives 0.27% (n = 330,000);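 active means about 74% or more and at least 40 points above the plate without the antibiotic, then above 30% in a dose series; inconclusive means first-round hits that could not be retested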;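 further: growth measured after seven days incubation then overnight dye step; 0% = bacteria only wells and 100% = bacteria with antibiotic; twin plates without the antibiotic show which effects depend on it; some results filed as inactive read as strong as hits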
YopH inh: YopH (Yersinia) phosphatase inhibition; actives 0.16% (n = 140,000); AID 898; fluorescence Ex485/Em525; inhibition, %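 (about 10 µM by stock and volumes)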;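 active means inhibition of 50% or more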;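 further: controls were vehicle for no effect and minimum signal wells for full effect; inactives centre near -20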
The depositor's hits bear a star; & = joins results of further samples. A portion of the library (hit frequency here may not be typical).

For Cc1nnn(C23CC4CC(CC(CC(=O)Nc5ccc(C)c(C)c5)(C4)C2)C3)n1 the results were RecA intein inh 1.3, Arbovirus anti -2.7, Mtb growth -1.8%, Mtb betalactam -1.2 and YopH inh -23.4.
`N#C/C(=C\Nc1ccccn1)S(=O)(=O)c1ccc(Cl)cc1` gave RecA intein inh -2.6, Mtb growth 3.1% and Mtb betalactam 0.8.
Cc1ccccc1N=Nc1c(O)n(C)c2ccccc12 was read as RecA intein inh -1.7 and Mtb betalactam 0.9.
O[C@@H]1C2CCCC1[C@]1(O)CCCCC1C2 (stereo partly drawn) was read as RecA intein inh -3.4, Arbovirus anti 6.2, Mtb growth -5.2%, Mtb betalactam -8.5 and YopH inh -27.0.
COc1ccccc1C1CCN(C(=S)Nc2ccc(Br)cc2)CC1 was read as RecA intein inh 12.2, Mtb growth -5.5% and Mtb betalactam -2.5.
O=C(O)C1C2CC3CC(C2)CC1(n1ncc(N2CCC4(CC2)OCCO4)c(Cl)c1=O)C3 (stereo not drawn) was read as RecA intein inh 2.0, Mtb growth -2.3% and Mtb betalactam -9.4.
For Cc1ccc(-c2n[nH]c(=S)c3ccccc23)cc1S(=O)(=O)NCC1CCCO1 (stereo not drawn) the results were RecA intein inh 0.3 and Mtb betalactam -14.1.
Screening O=C(Nc1c(C(=O)N2CCOCC2)oc2ccccc12)c1ccccc1Cl returned RecA intein inh -1.0 and Mtb betalactam 1.2.
Screening CCOc1cc(/C=N/Nc2nc(N3CCCC3)nc(N3CCCC3)n2)ccc1O returned RecA intein inh -0.7, Arbovirus anti 7.0, Mtb growth -5.6%, Mtb betalactam -2.4 and YopH inh -18.9.
`Cn1c(C2CCCCC2)nc2cc(N)ccc21` gave RecA intein inh -2.3 and Mtb betalactam -1.6.

Reprinted at random: 3 entries already listed
O[C@@H]1C2CCCC1[C@]1(O)CCCCC1C2 (stereo partly drawn) was read as RecA intein inh -3.4, Arbovirus anti 6.2, Mtb growth -5.2%, Mtb betalactam -8.5 and YopH inh -27.0.
Cc1ccccc1N=Nc1c(O)n(C)c2ccccc12 was read as RecA intein inh -1.7 and Mtb betalactam 0.9.
Screening CCOc1cc(/C=N/Nc2nc(N3CCCC3)nc(N3CCCC3)n2)ccc1O returned RecA intein inh -0.7, Arbovirus anti 7.0, Mtb growth -5.6%, Mtb betalactam -2.4 and YopH inh -18.9.

The listing picks up, starting 4 compounds before the break.
For Cc1ccc(-c2n[nH]c(=S)c3ccccc23)cc1S(=O)(=O)NCC1CCCO1 (stereo not drawn) the results were RecA intein inh 0.3 and Mtb betalactam -14.1.
Screening O=C(Nc1c(C(=O)N2CCOCC2)oc2ccccc12)c1ccccc1Cl returned RecA intein inh -1.0 and Mtb betalactam 1.2.
Screening CCOc1cc(/C=N/Nc2nc(N3CCCC3)nc(N3CCCC3)n2)ccc1O returned RecA intein inh -0.7, Arbovirus anti 7.0, Mtb growth -5.6%, Mtb betalactam -2.4 and YopH inh -18.9.
`Cn1c(C2CCCCC2)nc2cc(N)ccc21` gave RecA intein inh -2.3 and Mtb betalactam -1.6.
`O=C(O)C(c1ccccc1)N1C(=O)/C(=C\c2ccc(O)c(O)c2)SC1=S` (stereo not drawn) gave RecA intein inh 7.1 and Mtb betalactam 11.3.
Screening CC(C)(C)C(=O)NCCN1C(=O)S/C(=C\c2ccc([N+](=O)[O-])cc2)C1=O returned RecA intein inh 0.7, Arbovirus anti -0.3, Mtb growth 1.2%, Mtb betalactam 3.4 and YopH inh 43.9.
For COCc1c(C(=O)N/N=C\c2ccccn2)nnn1-c1nonc1N the results were RecA intein inh -5.6 and Mtb betalactam 2.6.
For CC(NC(C)(C)C)C(=O)c1cccc(Cl)c1 (stereo not drawn) the results were RecA intein inh 1.3&-3.0, Arbovirus anti 9.9, Mtb growth -7.2%&-4.2%, Mtb betalactam 3.8&-3.4 and YopH inh -28.9.
For O=C(NCC1CCCCC1)c1ccccc1[N+](=O)[O-] the results were RecA intein inh -2.6 and Mtb betalactam 2.3.
`O=C(NC(=S)N1CCN(Cc2ccc3c(c2)OCO3)CC1)c1ccc(Cl)cc1` gave RecA intein inh -4.3, Arbovirus anti -8.4, Mtb growth inconclusive, Mtb betalactam 92.5 and YopH inh -24.9.
Cn1nc(-c2ccc(OCC(=O)Nc3ccccc3)cc2)c2ccccc2c1=O was read as RecA intein inh 4.7, Arbovirus anti -3.2, Mtb growth 3.4%, Mtb betalactam 4.5 and YopH inh -1.8.
`Cc1cc(NC(=O)CN2C(=O)NC(C)(c3ccc(OC(F)F)cc3)C2=O)no1` (stereo not drawn) gave RecA intein inh 5.3, Arbovirus anti 3.5, Mtb growth 3.0%, Mtb betalactam -9.1 and YopH inh 4.7.
`Cn1cc(CNC(=O)COc2ccc(Cl)cc2Cl)cn1` gave RecA intein inh -2.5, Arbovirus anti -2.2, Mtb growth -6.7%, Mtb betalactam 3.1 and YopH inh -8.0.
Cc1sc(NC(=S)NC(=O)c2cccs2)nc1-c1ccc(C(C)C)cc1 was read as RecA intein inh -0.4, Arbovirus anti -18.9, Mtb growth -3.9%, Mtb betalactam -5.3 and YopH inh -42.6.
Cc1ccc2sc(NNC(=O)c3ccc4c(c3)OCCO4)nc2c1C was read as RecA intein inh -3.9, Arbovirus anti -24.2, Mtb betalactam 55.0 and YopH inh -17.4.
`CCOC(=O)CSc1nc2ccccc2c(=O)n1CCC(=O)NCCc1ccc(OC)c(OC)c1` gave RecA intein inh 1.1, Arbovirus anti -6.2, Mtb growth -5.5%, Mtb betalactam -10.2 and YopH inh -22.2.
`COc1ccc(/C=C/C(=O)Nc2sc3c(c2C(=O)NCc2cccnc2)CCCC3)cc1` gave RecA intein inh -3.6, Arbovirus anti 0.0, Mtb growth -0.8%, Mtb betalactam -2.8 and YopH inh -20.8.
`O=C(NN1C(=O)C2C(C1=O)C1C=CC2C12CC2)c1cccc(Cl)c1` (stereo not drawn) gave RecA intein inh -0.5, Arbovirus anti -1.3, Mtb growth -3.5% and Mtb betalactam 13.3.
For C/C(=N\NC(=O)c1cccc(S(=O)(=O)N2CCOCC2)c1)c1ccc(OCC(=O)N(C)C)cc1 the results were RecA intein inh 8.7 and Mtb betalactam -1.9.
`Cc1ccc(S(=O)(=O)NNC(=O)c2ccc3ccccc3n2)cc1` gave RecA intein inh 2.8 and Mtb betalactam -1.6.
`O=c1oc2c(Cl)cc(Cl)cc2cc1-c1nnc(Nc2ccccc2F)s1` gave RecA intein inh -0.5, Arbovirus anti 3.0, Mtb betalactam 2.0 and YopH inh -24.1.
`Cc1ccc2nc(SCC(=O)N3CCN(c4ccccc4)CC3)nc(=O)n2c1` gave RecA intein inh 1.3 and Mtb betalactam -14.3.
Screening CCN(CC)P(=S)(c1c(C)nc2ccccn12)c1c(C)nc2ccccn12 returned RecA intein inh 4.2, Arbovirus anti -8.9, Mtb growth 4.2% and Mtb betalactam 3.9.
Screening COc1ccccc1C1CC(c2ccccc2)=NN1C(=O)c1ccccc1 (stereo not drawn) returned RecA intein inh 11.9 and Mtb betalactam 10.4.
CCn1cc(C(=O)NCCCOC(C)C)c2cc(OC)c(OC)cc2c1=O was read as RecA intein inh 11.9, Arbovirus anti -4.0, Mtb growth 1.1%, Mtb betalactam -2.7 and YopH inh -10.6.
For COCc1cc(Sc2ccc(Cl)cc2Cl)nc(-c2ccccc2)n1 the results were RecA intein inh 0.6, Arbovirus anti 17.8, Mtb growth 21.1%, Mtb betalactam 10.1 and YopH inh -43.3.
For O=C(CCc1c[nH]c2ccccc12)N1CCCCCCC1 the results were RecA intein inh 1.9 and Mtb betalactam 4.4.
Screening C=CC[n+]1cccc(-c2cc3ccc(C)cc3[nH]2)c1 returned RecA intein inh -0.9 and Mtb betalactam 5.6.
Cc1c(CCC(=O)N2CCC(C(=O)NCCCCCC(=O)O)CC2)c(=O)oc2cc3oc4c(c3cc12)CCCC4 was read as RecA intein inh -0.1 and Mtb betalactam 5.8.
Screening Cn1c(=S)n(CCC(=O)O)c2ccccc21 returned RecA intein inh 0.3, Arbovirus anti 16.4, Mtb growth -7.0% and Mtb betalactam -1.5.
Screening C=CCn1ccc(O)c(Cc2ccc(Cl)cc2)c1=O returned RecA intein inh 0.0 and Mtb betalactam 0.3.
For Cc1cnc(NC(=O)CCN2C(=O)C3CCCCC3C2=O)s1 (stereo not drawn) the results were RecA intein inh 0.6, Arbovirus anti -1.1, Mtb growth 4.6% and Mtb betalactam -5.9.
`Cc1ccc(CS(=O)(=O)Cc2ccc(C(=O)NCCCN3CCOCC3)o2)cc1` gave RecA intein inh 0.6, Arbovirus anti 12.2, Mtb growth -6.7%, Mtb betalactam -3.8 and YopH inh -47.5.
Cc1ccc(NC(=O)NC(=O)COc2ccc(Cl)cc2Cl)c(C)c1 was read as RecA intein inh -0.7, Arbovirus anti -2.9, Mtb growth 9.6%, Mtb betalactam 7.2 and YopH inh -6.9.
Screening CN1CCN(C(=O)c2ccc3c(c2)NC(=O)C(C)(C)O3)CC1 returned RecA intein inh -1.0, Arbovirus anti 4.0, Mtb growth -16.5%, Mtb betalactam 1.0 and YopH inh -46.0.
`O=C(O)CCc1ccc(NCc2cccc(Oc3ccccc3)c2)cc1` gave RecA intein inh 1.1, Mtb growth 10.1% and Mtb betalactam 7.9.
Cc1ccc2c(c1)c1nc3ccccc3nc1n2CCN1CCOCC1 was read as RecA intein inh -5.7, Arbovirus anti -18.8, Mtb growth 14.7%, Mtb betalactam 56.4 and YopH inh -35.1.
For CC(Oc1ccc(C(=O)NCCc2ccccc2)cc1)C(=O)O (stereo not drawn) the results were RecA intein inh -2.8, Arbovirus anti 9.3, Mtb growth 1.3%, Mtb betalactam -9.2 and YopH inh 3.1.
CCc1ccc(-n2c(=O)c3ccccc3n3c(=S)[nH]nc23)cc1 was read as RecA intein inh -0.3 and Mtb betalactam 3.9.
`Cc1cc(C)c([N+](=O)[O-])cc1-c1ccc(/C=N/c2c(-c3ccco3)nc3ccccn23)o1` gave RecA intein inh 4.7, Arbovirus anti -4.5, Mtb growth -14.9%, Mtb betalactam 2.8 and YopH inh -15.9.
O=C(Cn1cnc2c(cnn2-c2ccc(Cl)cc2)c1=O)NCC1CCCO1 (stereo not drawn) was read as RecA intein inh -6.3, Arbovirus anti 1.4, Mtb growth -17.5%, Mtb betalactam -16.3 and YopH inh -30.5.
For CC(C)Oc1cccc(NC(=O)c2cccn(Cc3ccc4c(c3)OC(F)(F)O4)c2=O)c1 the results were RecA intein inh 5.7, Arbovirus anti -6.1, Mtb growth -24.6%, Mtb betalactam -8.1 and YopH inh -5.8.
Screening O=C(NCCc1cccc(Cl)c1)c1cccs1 returned RecA intein inh 14.0, Arbovirus anti -3.1, Mtb growth 9.5% and Mtb betalactam -0.1.
For CCOc1ccc(-n2c(C)nc(O)c2N=Nc2ccccc2)cc1 the results were RecA intein inh -1.0, Arbovirus anti -11.6, Mtb growth -2.2% and Mtb betalactam 2.1.
Screening CSc1nc(C)c2c(c1C#N)CCCC2 returned RecA intein inh -1.3, Arbovirus anti 0.7, Mtb growth 2.3%, Mtb betalactam 2.6 and YopH inh -26.5.
Screening Cc1ccc(O)c(C(=O)c2cnn(-c3ccccc3)c2)c1 returned RecA intein inh -2.2, Arbovirus anti 12.6, Mtb growth -1.5%, Mtb betalactam 11.6 and YopH inh -26.3.
`CNC(=O)c1[nH]cnc1C(=O)Nc1ccc(C)cc1` gave RecA intein inh -0.7, Arbovirus anti 11.8, Mtb growth 16.9%, Mtb betalactam 67.7 and YopH inh 35.7.
`CC(C)n1c(SCC(N)=O)nc2c1c(=O)n(C)c(=O)n2C` gave RecA intein inh -0.5, Arbovirus anti -3.5, Mtb growth 4.9%, Mtb betalactam -4.2 and YopH inh -37.2.
CCC(Sc1nnc(C)c(=O)[nH]1)C(=O)Nc1cccc2ccccc12 (stereo not drawn) was read as RecA intein inh 0.4 and Mtb betalactam 26.9.
COc1ccc(-c2cccc(C(=O)Nc3ccccc3C)c2)cc1 was read as RecA intein inh -0.3, Arbovirus anti -8.3, Mtb growth -2.6%, Mtb betalactam 3.7 and YopH inh -32.1.
For CCCCn1nc2cc(C(=O)NCC34CC5CC(CC(C5)C3)C4)ccc2c1OCC the results were RecA intein inh -1.0, Arbovirus anti -27.6, Mtb growth 7.5% and YopH inh 4.4.
CCCN1C2CCCC1CC(NC(=O)Nc1ccc(C(C)C)cc1)C2 (stereo not drawn) was read as RecA intein inh -0.3, Arbovirus anti -33.8, Mtb growth -14.1%, Mtb betalactam 5.0 and YopH inh -22.9.
Screening COC(=O)C1=C(NC(=O)C(C)(C)C)CCS1 returned RecA intein inh -3.7, Arbovirus anti 2.4, Mtb growth -0.7%, Mtb betalactam 4.3 and YopH inh -18.4.
`COc1ccc(C(=O)N[C@H](C(=O)Nc2nc3ccccc3[nH]2)C(C)C)cc1` gave RecA intein inh 3.9, Arbovirus anti -6.3, Mtb growth -0.2% and Mtb betalactam 1.1.

Assay outcomes (PubChem)
